Source: PubChem BioAssay
Cruzain noTriton = inhibitors of Trypanosoma cruzi cruzain without detergent; P25779; purified cruzain, Z-FR-AMC fluorescence, no detergent; Potency, µM, for the others: max response, negative = inhibition, usual class: inhibitors; actives 2.3% (n = 200,000); AID 1476;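 also: plate controls were enzyme without inhibitor for no effect and buffer without enzyme for full effect; nearly all actives have a fitted effect of over 40% in size; top concentration of the series not given in the record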
Target sequence (P25779 123-467 limits assumed): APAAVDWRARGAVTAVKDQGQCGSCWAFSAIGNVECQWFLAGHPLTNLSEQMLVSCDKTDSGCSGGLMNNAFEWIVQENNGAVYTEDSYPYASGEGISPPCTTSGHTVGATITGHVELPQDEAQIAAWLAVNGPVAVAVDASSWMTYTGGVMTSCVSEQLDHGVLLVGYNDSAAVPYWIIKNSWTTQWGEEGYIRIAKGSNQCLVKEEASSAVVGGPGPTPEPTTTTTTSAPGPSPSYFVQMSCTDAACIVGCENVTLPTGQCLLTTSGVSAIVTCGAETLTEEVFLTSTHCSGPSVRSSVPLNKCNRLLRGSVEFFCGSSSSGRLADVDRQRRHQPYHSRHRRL
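Purified cruzain at 1.5 nM, pre-incubated 15 min with compound at room temperature in 100 mM sodium acetate pH 5.5, 5 mM DTT, 0.00005% Triton X-100. Reaction started with 2 uM Z-FR-AMC; AMC fluorescence increase over 60 s gives rate.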
SARS PLpro yeast = SARS-CoV PLP inhibition in yeast. S. cerevisiae expressing SARS-CoV PLpro, growth rescue; control for the full effect not named in the record. Potency, µM (highest dose often 32.9 µM), inactives show top-dose activity, positive = growth rescue. actives 0.19% (n = 330,000). AID 485353; active means well fitted rising curve with a large enough effect; inconclusive means small, poorly fitted or top-dose-only effect; inactive means no such curve, though single readings can be large or run the other way; also: 0% is about no effect; nearly all actives have a fitted effect of over 55% in size; growth read by luminescence after 48 h
2A StopGo = lowers the luciferase signal of an FMDV 2A StopGo reporter; human cells with a luciferase reporter of 2A StopGo recoding; control for the full effect not named in the record; actives 1.2% (n = 410,000); Potency, µM (highest dose often 57.9 µM), inactives show at the top dose signal change, negative = less light; active = well fitted falling curve with a large enough effect; inconclusive = small, poorly fitted or top-dose-only effect; inactive = no such curve, though single readings can be large or run the other way; tested in HEK293T cells; also: % is scaled to controls: 0 for no effect and ±100 for the full control effect; nearly all actives have a fitted effect of over 45% in size; luciferase light after 4 h
Lassa entry inh = blocks Lassa virus binding to or entry into cells. Lassa virus pseudotype entry inhibition, cell reporter; control for the full effect not named in the record. Potency, µM (top dose mostly 37.9 µM), for the others: at the top dose activity change, negative = inhibition, actives largely listed as inhibitors. actives 1.2% (n = 300,000); active means well fitted inhibition curve with a large enough effect; inconclusive means small, poorly fitted or top-dose-only effect, or effect the other way; inactive means flat fitted curve, though single readings scatter; tested in HEK293 cells; also: % is scaled to controls: 0 for no effect and ±100 for the full control effect; nearly all actives have a fitted effect of over 50% in size; luciferase read-out
Cruzain inh Det = cruzain (T. cruzi) inhibition with detergent; purified cruzain, Z-FR-AMC fluorescence, 0.01% Triton; Potency, µM, for inactives: max response, negative = inhibition, hits mostly inhibitors; P25779; AID 1478; actives 0.43% (n = 200,000);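 also: plate controls were neutral wells for no effect and buffer without enzyme for full effect; nearly all actives have a fitted effect of over 40% in size; top concentration of the series not given in the record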
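15 min RT preincubation of 1.5 nM cruzain with compound, then 2 uM Z-FR-AMC added; kinetic AMC fluorescence, 60 s delta. Triton X-100 0.01%, pH 5.5.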
MARV entry inh = Marburg virus entry inhibition; AID 540276; actives 1.8% (n = 300,000); Marburg virus pseudotyped entry inhibition, cell reporter; control for the full effect not named in the record; about a third of the inactives were read at about 46 µM; Potency, µM (top dose mostly 37.8 µM), inactives show at the top dose activity change, negative = inhibition, actives largely listed as inhibitors; active = well fitted inhibition curve with a large enough effect; inconclusive = small, poorly fitted or top-dose-only effect, or effect the other way; inactive = flat fitted curve, though single readings scatter; tested in HEK293 cells; about a fifth of its hits are not listed in these tables; also: % is scaled to controls: 0 for no effect and ±100 for the full control effect; luciferase read-out
RE007 growth inh = less growth of the S. pombe RE007 Vpr strain | actives 0.21% (n = 360,000) | Potency, µM (titrated, usually from 92.2 µM), for inactives: top-dose activity change, negative = less growth | AID 651644 | S. pombe RE007 Vpr strain, BacTiter-Glo ATP luminescence, 24 h; control for the full effect not named in the record; active = well fitted falling curve with a large enough effect; inconclusive = small, poorly fitted or top-dose-only effect; inactive = no such curve, though single readings can be large or run the other way;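 also: % is scaled to controls: 0 for no effect and ±100 for the full control effect; nearly all actives have a fitted effect of over 50% in size; the assay follows cell death caused by Vpr and the record does not say whether a fall means rescue or toxicity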
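Fission yeast RE007 carrying one integrated HIV-1 vpr copy, seeded at OD 0.01 in PMG+AL medium with 23 nL pinned compound. Grown 24 h at 30 degrees; viability read by BacTiter-Glo luminescence after 5 min.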
NS1 inh = inhibitors of influenza NS1 protein function. AID 2326. Potency, µM (top dose mostly 46.1 µM), inactives show at the highest dose activity, positive = more growth. actives 0.4% (n = 270,000). S. cerevisiae slowed by influenza A NS1, growth recovery by OD600; active means well fitted rising curve with a large enough effect; inconclusive means small, poorly fitted or top-dose-only effect; inactive means no such curve, though single readings can be large or run the other way; also: nearly all actives have a fitted effect of over 50% in size
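Recovery from NS1-induced slow growth read by OD600 in budding yeast switched to galactose assay medium (pH 6.0, -URA) at 1:100 dilution. Compound 23 nl per well; the matching strain lacking NS1 serves as control.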
Starred values were filed as active, the others as inactive; u = inconclusive; x = not tested or not shown; [ ] = remark or other dose. Unless noted, calls follow the shape of the dose curve; as a rule, active = well fitted curve in the direction sought with a large enough effect; inconclusive = small, poorly fitted or top-dose-only effect, or another doubt; inactive = no such curve, though single readings can be large; an effect the other way counts as inactive or inconclusive. Potency is read from the fitted curve at half-maximal effect.

SMILES	Cruzain noTriton	SARS PLpro yeast	2A StopGo	Lassa entry inh	Cruzain inh Det	MARV entry inh	RE007 growth inh	NS1 inh
Cn1ccnc1C(O)c1ccco1 (stereo unspecified)	-9%	6%	x	19%	-0.3%	10%	-17%	3%
O=C(NC(=O)N1CCCCC1)c1ccc(Cl)cc1	x	1%	9%	x	x	x	6%	0%
Clc1ccc(Nc2nc(N3CCOCC3)nc(N3CCOCC3)n2)cc1Cl	x	4%	-21%	x	x	x	-7%	18%
CCOC(=O)c1c(NC(=O)COc2ncnc3ccccc23)sc(C(C)=O)c1C	u	-11%	-5%	-11%	-9.3%	-31%	-4%	u
COc1ccccc1CC(=O)N1CCCC1	-4%	-3%	-16%	6%	4.7%	19%	-13%	6%
COC(=O)CN1CCN(C(=O)c2ccc(F)cc2)c2ccccc2C1	8%	-3%	-22%	11%	6.7%	4%	2%	-5%
COc1ccc(CCNC(=O)Cn2nnc(-c3ccc(N(C)C)cc3)n2)cc1OC	u	-1%	-1%	-13%	-8.1%	1%	3%	6%
COC(=O)c1nn(-c2cccc(C(F)(F)F)c2)ccc1=O	x	9%	-10%	x	x	x	-6%	3%
CS(=O)(=O)NCc1ccc(C(=O)NCc2ccccc2)cc1	-6%	1%	19%	27%	-2.5%	0%	-2%	-1%
N#C/C(=N/Nc1ccccc1F)C(=N)N1CCOCC1	-6%	-7%	x	16%	-1.7%	2%	5%	1%
COCCNC(=O)CN(c1cc(Cl)ccc1OC)S(=O)(=O)c1ccc(C)c([N+](=O)[O-])c1	x	0%	1%	7%[46.1 µM]	x	u	-1%	0%
Cc1cc(NC(=O)C(C)C)ncc1NC(=O)Cc1ccccc1	-5%	8%	-6%	1%	6.7%	-1%	17%	-4%
COc1ccc(OCc2nc3ccccc3n2C(C)C)cc1	x	-1%	-21%	-5%	x	u	-15%	-11%
COC(=O)c1c(NC(=O)CN2CCN(Cc3ccc4c(c3)OCO4)CC2)sc(C)c1C	0%	-1%	-3%	u	0.9%	u	-6%[3.69 µM]	-54%
COc1cccc(NC(=O)CN(C)C(=O)c2cc(S(=O)(=O)NCc3ccccc3)ccc2C)c1	x	-2%	15%	0%	x	-21%	-10%	-12%
Cc1cc(N/N=C/c2ccc(O)cc2)c2cccc(C)c2n1	x	-6%	-11%	x	x	x	-16%	-3%
CC(=O)Nc1cccc(Nc2nc(-c3cccs3)nc3ccccc23)c1	x	-4%	-15%	u	x	u	-17%	-13%
CC1CCN(C(=O)c2ccc(S(=O)(=O)N3CCOCC3)cc2)CC1	x	1%	7%	9%	x	0%[46.1 µM]	-19%	9%
O=c1ccnc(Nc2ccc(Cl)cc2)[nH]1	x	1%	-14%	x	x	x	12%	1%
O=C(CN1CCOCC1)OCCCc1ccccc1	-6%	5%	4%	-9%	1.2%	12%[46.1 µM]	23%	u
COc1cc(CN2CCN(c3ncccn3)CC2)cc(OC)c1	x	0%	0%	x	x	x	-16%	2%
Oc1ccc2ccccc2c1C=Nc1ccccc1Br	x	1%	10%	x	x	x	-3%	9%
Cc1[nH]c2ccccc2c1C(=O)C(C)OC(=O)C1CCC1 (stereo unspecified)	x	1%	-21%	u	x	-27%	-6%	x
C(=N\n1cnnc1)/c1cccn1-c1ccccc1	-16%	2%	3%	7%	-4.8%	8%	3%	-3%
CCC(CO)N=CC1=C(O)C(C(=O)c2ccccc2)CCC1=O (stereo unspecified)	5%	12%	-2%	14%	1.7%	12%	-18%	-1%
CC(C)c1ccc(NC(=O)C2(C)Cc3ccccc3C(=O)O2)cc1 (stereo unspecified)	-7%	x	25%	2%[46.1 µM]	-6.2%	22%[46.1 µM]	x	x
Cc1cc(/C=C/C(=O)O)c(C)n1-c1ccc(Cl)cc1	x	-1%	18%	x	x	x	-14%	9%
COc1ccc(-c2nnn(CC(=O)N(CC3CCCO3)C(C(=O)NC(C)(C)C)c3ccco3)n2)cc1OC (stereo unspecified)	x	2%	3%	x	x	-10%[46.1 µM]	1%	x
CN(C)c1ccc(S(=O)(=O)N(C)C)cc1NC(=O)Cc1cccc2ccccc12	x	0%	-7%	u	x	u	20%	12%
CN1CCN(C(=O)Nc2ccc([N+](=O)[O-])cc2)CC1	x	1%	-10%	x	x	x	11%	0%
Cc1ccccc1-c1noc(-c2ccc(N3CCN(C)CC3)c([N+](=O)[O-])c2)n1	u	x	u	-2%[46.1 µM]	-4.2%	22%[46.1 µM]	x	x
OCCCc1n[nH]c(=S)n1-c1ccccc1	x	-1%	-9%	1%[46.1 µM]	x	-1%[46.1 µM]	-17%	-2%
COc1ccc(OC)c(C(=O)CSc2nc3c(c(=O)n(C)c(=O)n3C)n2C(C)C)c1	u	10%	x	13%	2.6%	-9%	-10%	-8%
Cc1ccccc1Nc1nc(N)nc(COC(=O)CC2CC3CCC2C3)n1 (stereo unspecified)	16%	-1%	-11%	u	-9.6%	14µM*	12%	-21%
CC(C)[C@H]1CC2C3CC=C4C[C@@H](O)CC[C@]4(C)C3CC[C@]2(C)[C@H]1O (stereo partly specified)	x	-16%	u	-20%[46.1 µM]	x	-7%[46.1 µM]	2%	x
CCN(Cc1cc(=O)n2cc(Cl)c(C)c(Cl)c2n1)Cc1nc2ccccc2c(=O)[nH]1	x	2%	-18%	-1%	x	-6%[46.1 µM]	17%	x
CCOC(=O)c1c(SC)nc(SC)c2c1CCC2	0%	-4%	0%	7%	5.6%	13%	6%	-3%
COc1ccccc1C(=O)N1CCN(Cc2nc3cc([N+](=O)[O-])ccc3n2C)CC1	x	0%	-16%	13%	x	5%	-7%	4%
Cc1ccccc1NC(=O)CSc1nc2ccc(NC(=O)c3cccs3)cc2s1	x	x	u	17%[46.1 µM]	-2.8%	u	x	x
CCCN(CC(=O)Nc1ccccc1C)C(=O)c1ccc(-c2ccccc2)cc1	x	-3%	-4%	u	x	-17%	-5%	-2%
Cn1cc(Cl)c(-c2n[nH]c(=S)n2-c2ccccc2)n1	3%	-4%	8%	4%	-2.4%	u	-13%	5%
COc1ccc(Cc2nnc(Cl)c3ccccc23)cc1OC	x	0%	2%	x	x	x	2%	1%
Cc1nn(Cc2noc(C(=O)NCCCn3ccnc3)n2)c(C)c1Br	x	2%	-4%	4%[46.1 µM]	x	10%[46.1 µM]	6%	-7%
O=C(O)CC/C(=N\Nc1ccc([N+](=O)[O-])cc1)c1ccccc1	x	-5%	-17%	-12%	x	1%	-7%	-60%
COc1ccc2c(c1)CCCN2S(=O)(=O)c1ccc(Cl)cc1	x	0%	u	x	x	x	9%	-46%
COc1ccc(N=CC2=C(O)CCCC2=O)cc1	-16%	-1%	29%	-17%	-4.5%	1%	-8%	-5%
O=C(Cn1ncc2c3ccccc3n(Cc3ccc(F)cc3)c2c1=O)NCCCN1CCCCC1	-8%	x	0%	9%[46.1 µM]	-2.2%	9%[46.1 µM]	x	x
Cc1cccc(NC(=O)Cn2cc(C(=O)C3CCCCC3)c3ccccc32)c1C	1%	x	u	-29%[46.1 µM]	-0.8%	u	x	x
CCn1ncc(NC(=S)Nc2ccc3c(c2)OCO3)c1C(N)=O	x	0%	7%	8%	x	-14%	-8%	x
CC(CN1CCCCC1)OC(=O)COc1ccc(Cl)cc1 (stereo unspecified)	x	-4%	-7%	4%	x	u	0%	2%
Cc1ccc2nc(NC(=O)CSc3[nH]c(=O)ncc3C)sc2c1	-18%	x	6%	9%[46.1 µM]	-1.5%	x	x	x
COc1cccc(NC(=S)N2CCN(S(=O)(=O)c3ccc(F)cc3)CC2)c1	x	2%	14%	22%[46.1 µM]	x	-3%[46.1 µM]	6%	-1%
CC(NC(=O)c1ccc2ccccc2n1)c1ccc(S(N)(=O)=O)cc1 (stereo unspecified)	x	0%	-3%	x	x	7%[46.1 µM]	9%	-1%
Cc1cccc(NC(=O)CCC(=O)N/N=C/c2cc([N+](=O)[O-])ccc2O)c1	u	22%	-25%	-25%	-0.8%	-12%	-5%	-15%
O=C(NCCCO)/C(=C\c1ccco1)NC(=O)c1ccco1	x	-6%	-3%	x	x	x	2%	2%
COc1cccc(NS(=O)(=O)c2ccc3[nH]cc(C(=O)N(C)C4CCCCC4)c(=O)c3c2)c1	0%	x	20%	16%[46.1 µM]	-0.4%	x	x	x
COc1ccc(S(=O)(=O)Cc2ccc(C(=O)NCCCN3CCc4ccccc4C3)o2)cc1	-4%	6%	-9%	x	1.5%	-1%	-2%	2%
O=C(CSCc1ccc(Br)cc1)NCc1ccccn1	x	-2%	-5%	5%[46.1 µM]	x	-5%[46.1 µM]	2%	-2%
Cc1nnc(NC(=O)C2CCCO2)s1 (stereo unspecified)	4%	12%	-26%	-29%	-2.1%	-5%	-10%	-3%
O=C(CC(=O)NN=C1CCCCCC1)NCc1cccnc1	x	0%	-17%	-1%	x	-17%[46.1 µM]	8%	x
New compounds follow
SMILES	Cruzain noTriton	SARS PLpro yeast	2A StopGo	Lassa entry inh	Cruzain inh Det	MARV entry inh	RE007 growth inh	NS1 inh
N#C/C(=C/c1ccc(N2CCCC2)c([N+](=O)[O-])c1)c1nc2ccccc2[nH]1	-21%	-6%	4%	7%	-0.7%	15%	-9%[3.69 µM]	2%
CCOC(=O)c1c(C=O)c(C)n(Cc2ccccc2)c1C	-5%	-7%	-11%	-10%	-2.9%	8%	3%	-47%
COc1ccc(CN(CC(=O)NC2CCCC2)C(=O)CCC(=O)Nc2cc(C)on2)cc1	5%	-23%	6%	u	0.5%	1%	6%	-4%
O=C(CSc1ccc(-c2ccco2)nn1)NCc1ccc(Cl)cc1	4%	-8%	-12%	-10%	-24%	u	-9%	-5%
COc1cc(-c2ccc(NC(C)=O)c(OC)c2)ccc1NC(C)=O	x	-1%	5%	x	x	x	2%	-3%
O=C(CCc1ccc(F)c(F)c1)NC1CCCN(Cc2ccc(Cl)cc2)C1 (stereo unspecified)	x	-2%	-18%	-20%[46.1 µM]	x	11µM*	-7%	-4%
CS(=O)(=O)c1ccc(NC(=O)CCCc2nc3ccccc3c(=O)[nH]2)cc1	x	-1%	-25%	3%	x	19%	-2%	x

Rows were taken by chance; 4.7% or so of the library scored in one or more.
